AID504770 = growth inhibitors of E. coli YBA685 in a screen for V. cholerae RctB (chromosome II replication) inhibitors; z-score (concentration not given with the values); E. coli YBA685 rctB-dependent plasmid, OD600 growth, 3 h; stronger effect = lower value; 0.27% of 130,000 active; AID 504770;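 active = z-score under -2 on both plates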;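 note: wells of about 30 µL received 100 nL stock; score is relative to mean and SD of the test wells; the first replicate is given; strong numbers were not always called active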
Ba CapD inh = CapD enzyme inhibition. purified CapD enzyme, fluorescence intensity read-out; stronger effect = lower value; some hits fall short of the stated cut. z-score (test concentration not listed). 0.23% of 140,000 active;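 active = z-score under -4 in either of two replicates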;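 note: stock transfer was 100 nL into about 40 µL; score is relative to mean and spread of the plate; one replicate is shown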
An asterisk follows results filed as active; / = not tested or not shown.

SMILES	AID504770	Ba CapD inh
CCn1c(SCC(=O)c2ccccc2)nc2sc3c(c2c1=O)CCC3	0.2	-0.42
C=CCn1c(=S)oc2ccccc21	-0.35	-0.01
Cc1cc(C(=O)C(F)(F)F)c(C)n1-c1cc(Cl)cc(Cl)c1	/	0.84
COC(=O)C1C2C=CC(C2)C1C(=O)Nc1ccccc1 (configuration not stated)	-0.3	0.025
CCN(Cc1ccccc1)C(=O)CCc1nc(-c2ccc(C)cc2)no1	1.4	-0.56
Cc1ccn(S(=O)(=O)c2ccccc2)n1	2	-0.19
COc1ccc(-c2ccc(C#N)c(OC(=O)c3c(Cl)cccc3Cl)n2)cc1	/	36
O=[N+]([O-])c1cc(Cl)c(-n2cccc2)cc1SCc1ccc(Cl)c(Cl)c1	/	-0.36
O=C(COc1ccc(Cl)cc1)OCc1ccc(Br)cc1	0.9	-0.31
Nc1nnc(SCC(=O)C2CC2)s1	-0.05	/
O=C1C2CC=C(Cl)CC2C(=O)N1CN(Cc1ccccc1)CN1C(=O)C2CC=C(Cl)CC2C1=O (configuration not stated)	/	0.31
COC(=O)C1CC(=O)N(Cc2ccccc2)C1 (configuration not stated)	0.25	0.025
COC(=O)c1ccc(COc2ccc3c(c2)OCO3)cc1	-0.8	/
O=C(N/N=C/c1ccccc1C(F)(F)F)c1ccco1	1.4	-0.85
CCCCNC(=O)C1CCN(Cc2nc(-c3ccc(Cl)cc3)oc2C)CC1	0.4	0.18
Cc1cccc(C)c1NC(=O)C(c1ccc(F)cc1)N1C(=O)CC1c1ccco1 (configuration not stated)	0.05	0.39
CC(C)(C)OC(=O)NCc1nc(N)n[nH]1	0.15	-0.17
CCOC(=O)c1cc(CSc2n[nH]c(=O)n2-c2ccccc2)nn1C(C)(C)C	-0.6	9.8
Cc1cccc(CCOC(=O)NNC(=O)c2cc(C)[nH]n2)c1	/	-0.21
O=C(CSc1ncc(C(F)(F)F)cc1Cl)NC(=O)CN1CCCC1=O	-1.1	/
COc1ccccc1/C=C1\SC(=O)N(CCC(=O)O)C1=O	-1.7	-1.5
COc1nc(N(C)C)nc(N(OC)S(=O)(=O)c2ccccc2)n1	/	-0.63
O=c1[nH]c2cc3c(cc2cc1CN(Cc1ccc2c(c1)OCO2)S(=O)(=O)c1ccc(F)cc1)OCO3	0.8	/
CC(=O)Nc1cccc(Oc2ncnc3scc(-c4ccc(C(C)C)cc4)c23)c1	0.7	-0.28
CNC(=O)/C=C1\N(C)c2ccccc2C1(C)C	-0.2	-1.2
COC(=O)c1cc(-c2ccc3c(c2)OCO3)nc2onc(C)c12	-0.15	/
CC1CN(c2ncnc3scc(-c4ccccc4)c23)CC(C)O1 (configuration not stated)	-0.3	0.36
O=C(/C=C/c1ccc(Cl)cc1)N1CCN(C(=O)c2ccco2)CC1	-0.65	-0.52
Clc1cc(Cl)cc(OCc2nn[nH]n2)c1	-1	9.2
Cn1c(CNC(=O)c2cccs2)nnc1SCC(=O)N1N=C(c2cccs2)CC1c1ccc(F)cc1 (configuration not stated)	/	7.7
Cc1ccc(C)n1-n1cnc2scc(-c3cccs3)c2c1=O	-0.4	0.025
Cc1cc(/C=C(/C#N)S(C)(=O)=O)c2c(C)ccc(C(C)C)cc1-2	1.6	-0.3
CSC(=S)n1c(=Nc2ccccc2)sc2ccccc21	-1	-0.34
CC1=CC(=O)NC2C=CC=CC12 (configuration not stated)	-0.9	13
O=C1C2C3c4ccccc4C(c4ccccc43)C2C(=O)N1CNc1ccc2c(c1)oc1ccccc12 (configuration not stated)	/	1.1
Cc1cccc(-c2nc(Nc3c(F)cccc3F)c3ccccc3n2)c1	/	1.2
CC(C)OCc1ccc(C(=O)O)cc1	-0.8	/
COc1ccc(OC)c(NS(=O)(=O)c2ccccc2)c1	-0.25	-0.12
O=C(Cn1c(C(F)(F)F)nc2ccccc21)Nc1ccccc1C(=O)O	-0.4	-0.32
CCOC(=O)c1cc(C#N)c(C)nc1N1CCN(C(=O)OCC2CCCN(Cc3ccc(OC)c(F)c3)C2)CC1 (configuration not stated)	/	1.1
CCCc1cc(NCCCN(CC)CC)n2c(nc3ccccc32)c1C#N	-0.7	7.9
N#Cc1ccc(NC(=O)c2ccc(Br)o2)cc1	-1.1	0.08
Cc1cccc(-c2nnc(SCc3ccc(C#N)cc3)n2CC(N)=O)c1	-1.5	/
O=C1C=CC(=O)N1c1ccccc1	-7*	-0.57
O=C(CSC1CCCCC1)NC1CCCC1	1	-0.42
O=C(Nc1ccc(-c2noc(-c3ccccc3Br)n2)cc1)c1cccnc1	-0.75	-0.74
CC(=O)OC12CC3C4CC(O1)C1C4CC3C12 (configuration not stated)	0.75	/
CCOc1cc(C2C(C(=O)OC(C)CC)=C(C)NC3=C2C(=O)CC(c2ccc(OC)cc2)C3)ccc1O (configuration not stated)	/	12
Cc1cc(-c2onc(C)c2C(=O)NC(=O)Nc2ccccc2)no1	0.3	9.8
CS(=O)(=O)N(CC(=O)O)c1cccc2ccccc12	-0.25	0.18
O=S(=O)(/N=C1\C=C2N(CCO)CCOC2(O)c2ccccc21)c1ccccc1 (configuration not stated)	-0.5	-0.93
COc1ccc2cc1Oc1ccc(cc1)C[C@H]1c3cc(c(OC)cc3CCN1C)Oc1c(OC)c(OC)cc3c1[C@H](C2)N(C)CC3	/	0.065
OC1CN=C2C=CC=CN2C1 (configuration not stated)	-0.75	/
CC(C)(C)c1ccc(NC(=O)NC2CCCc3ccccc32)cc1 (configuration not stated)	-0.7	0.98
COc1ccc(CC(=O)Nc2ccccc2)cc1	-0.65	/
Cc1occc1-c1nnc(SCC(=O)c2ccc(OC(F)F)cc2OC(F)F)n1C	0.05	/
CC1(C)CC(=O)c2ccc(OCC(=O)Nc3ccccc3)cc2O1	/	5.8
O=C1C2CCN(CC2)C1Cc1ccc(OCCOc2ccccc2)cc1 (configuration not stated)	1.8	-0.3
CCCCN1CN(CCCN2CCCCC2)Cn2c1nc1ccccc12	-0.7	/
O=C(C1COc2ccccc2O1)N1CCN(c2ccccc2)CC1 (configuration not stated)	0.85	0.27

Some of the entries above in another layout.
Structure | AID504770 | Ba CapD inh
CCCc1cc(NCCCN(CC)CC)n2c(nc3ccccc32)c1C#N | -0.7 | 7.9
N#Cc1ccc(NC(=O)c2ccc(Br)o2)cc1 | -1.1 | 0.08
Cc1cccc(-c2nnc(SCc3ccc(C#N)cc3)n2CC(N)=O)c1 | -1.5 | /
O=C1C=CC(=O)N1c1ccccc1 | -7* | -0.57
O=C(CSC1CCCCC1)NC1CCCC1 | 1 | -0.42
O=C(Nc1ccc(-c2noc(-c3ccccc3Br)n2)cc1)c1cccnc1 | -0.75 | -0.74
CC(=O)OC12CC3C4CC(O1)C1C4CC3C12 (configuration not stated) | 0.75 | /
CCOc1cc(C2C(C(=O)OC(C)CC)=C(C)NC3=C2C(=O)CC(c2ccc(OC)cc2)C3)ccc1O (configuration not stated) | / | 12
Cc1cc(-c2onc(C)c2C(=O)NC(=O)Nc2ccccc2)no1 | 0.3 | 9.8
CS(=O)(=O)N(CC(=O)O)c1cccc2ccccc12 | -0.25 | 0.18
O=S(=O)(/N=C1\C=C2N(CCO)CCOC2(O)c2ccccc21)c1ccccc1 (configuration not stated) | -0.5 | -0.93
COc1ccc2cc1Oc1ccc(cc1)C[C@H]1c3cc(c(OC)cc3CCN1C)Oc1c(OC)c(OC)cc3c1[C@H](C2)N(C)CC3 | / | 0.065
OC1CN=C2C=CC=CN2C1 (configuration not stated) | -0.75 | /
CC(C)(C)c1ccc(NC(=O)NC2CCCc3ccccc32)cc1 (configuration not stated) | -0.7 | 0.98
COc1ccc(CC(=O)Nc2ccccc2)cc1 | -0.65 | /

More structures follow:
SMILES	AID504770	Ba CapD inh
Cc1noc(C)c1COc1ncnc2ccccc12	-0.3	/
CCC(=O)Nc1ccc(C(=O)Nc2ccc(OCC(=O)O)cc2)cc1	0.7	0.09
COC(=O)CCSCc1cn2cc(Cl)ccc2n1	-0.4	2.1
Cc1ccc(C(=O)N2CCOCC2)cc1C	-0.7	/
O=C1CSc2ccc(C(=O)NCCSCc3ccco3)cc2N1	1.8	/
CN1C/C(=C\c2ccc3c(c2)OCO3)C(=O)/C(=C/c2ccc3c(c2)OCO3)C1	1.5	-1.1
COc1ccc(NC(=O)Nc2nnc(N(C)Cc3ccccc3)s2)cc1	0.65	-0.28
CCC(C)N(Cc1cn(CC)c2ccccc12)C(=O)Nc1ccc(Cl)c(Cl)c1 (configuration not stated)	0.3	15
COCCN(CCOC)S(=O)(=O)c1ccc(C(=O)Nc2nc3c(C)cc(C)cc3s2)cc1	/	2.1
CCN1C(=O)/C(=C2/C(=O)N3c4c(cc(OC(=O)c5cccs5)cc42)C(C)=CC3(C)C)SC1=S	0.1	0.21
CCOC(=O)c1cc(-c2ccccc2)n(CC(=O)Nc2nc3ccc(Cl)cc3s2)c1C	1.6	0.51
O=C(Oc1ccccc1)n1c(=S)oc2ccccc21	-0.85	0.55
CNC(=O)C1CCN(S(=O)(=O)c2c(C)noc2/C=C/N(C)C)CC1	0.45	-3.9
Cc1cccc(C(=O)NCCN2CCN(c3ccccc3)CC2)c1	/	-0.2
Cc1cc(C(=O)Cn2cnc3sccc3c2=O)c(C)n1C1CC1	0.35	/
Cc1ccc(S(=O)(=O)Nc2ccc3nc(-c4cccnc4)[nH]c3c2)cc1	0.2	37
O=C(CSc1nc2ccccc2s1)Nc1ncc2c(n1)CC(c1ccco1)CC2=O (configuration not stated)	0	0.29
CCCCn1c(N)c(C(=O)NCCC)c2nc3ccccc3nc21	0.9	/
O=C(COC(=O)c1cn(-c2ccccc2)nc1-c1cccs1)NC1CCS(=O)(=O)C1 (configuration not stated)	0.2	/
CC1CN(C(=O)C(C)Nc2ccc(Oc3ccccc3)cc2)CC(C)O1 (configuration not stated)	0.05	/
O=c1cc(NCc2cccs2)[nH]c(=O)n1Cc1ccc(F)cc1	-0.85	0.8
COC(CN(C)C(=O)c1ccc(CNS(=O)(=O)c2ccc(C)cc2)cc1)OC	0.25	1
NCCc1csc2c1CCCC2	-0.7	-0.12
Cc1ccc(OCCOC(=O)c2nc3nccc(C)n3n2)cc1	0	/
CSc1ccc(CNC(=O)c2ccc(Cl)cc2)s1	0.3	-0.6
CC(C)(SC(=S)N1CCCCCC1)C(=O)O	0.45	-0.11
COc1cccc(NC(=O)c2ccc(Cl)cc2)c1	0.5	-0.26
COC(=O)CSc1nc(-c2ccccc2)cc(-c2ccccc2)c1C#N	0.4	8.8
O=c1oc2ccccc2cc1-c1nc(-c2cccs2)no1	-0.7	4.3
CN(C)CCNC(=O)C(c1ccccc1)c1ccccc1	1.6	/
COc1cc(/C=C2/C(=N)N3C(c4ccccc4)=CSC3=NC2=O)ccc1OCCOc1ccccc1	/	-0.42
CC1CCN(C(=O)CSc2nnc(Cc3ccccc3)o2)CC1	1.1	-0.52
Cc1ccc(S(=O)(=O)Nn2c(SCC(=O)NCCc3ccccc3)nc3ccccc3c2=O)cc1	/	-0.16
CCc1ccc(N2C(=O)/C(=C/c3cccn3C(C)(C)C)C(=O)NC2=S)cc1	-1.2	8.6
O=C(CCC(=O)N1CCN(C(=O)c2cc(N3CCOCC3)nc(N3CCOCC3)n2)CC1)NC1CC1	/	-0.64
CNC(=O)CSc1ncnc2sc3c(c12)CCCC3	-0.5	/
COC(=O)c1cc(NC(=O)CSc2nc3[nH]ncc3c(=O)n2-c2cccc(C(F)(F)F)c2)cc(C(=O)OC)c1	/	0.34
COc1cc(/C=N/N=C/c2cc(Br)ccc2O)cc(OC)c1OC	/	-2.3
COc1ccc(C(CNC(=O)c2ccc3c(c2)SC2=NS(=O)(=O)CCN23)N2CCOCC2)cc1 (configuration not stated)	-0.65	/
O=C1N(c2ccccc2)NC(c2ccco2)C12CCCCC2 (configuration not stated)	-1.9	-0.12
CCOc1nc2ccccc2c(=O)n1CCO	-1.1	4.6
Cc1ccc(Cn2nnc3c(=O)n(Cc4cc(C)ccc4C)cnc32)cc1	0.65	/
COC(=O)c1ccc2c(=O)nc3c(-c4ccccc4)n[nH]n3c2c1	-0.55	/
O=C1c2nccnc2C(=O)N1c1ccccc1	-0.35	-0.56
N#CCOC(=O)c1ccc(-n2cnnn2)cc1	-0.45	/
Cc1ccccc1-c1nnc(CC23CC4CC(CC(C4)C2)C3)o1	-0.5	0.44
CC(C)CCSc1nc(-c2cccs2)ccc1C#N	-0.45	70
O=C(O)CSCC(=O)N1CCN(S(=O)(=O)c2cc(Cl)cc(Cl)c2)CC1	0.4	-0.24
Cc1ccc(OCCCn2ccnc2)cc1	1.4	/
COc1cc([N+](=O)[O-])cc2c1OC1(C=C2)N(c2ccccc2)c2ccccc2C1(C)C (configuration not stated)	/	-0.76
N#CSc1c(Cl)nc2sccn12	-4.3*	-0.46
CC1CN=C(NC2CCCCC2C)S1 (configuration not stated)	-0.6	/
O=C(O)CC1C=C(Cl)S(=O)(=O)C1 (configuration not stated)	0.1	0.21
O=C1CCCC/C1=C\Nc1ccccc1	/	-3.5
CSc1ncccc1C(=O)OCC(=O)Nc1ccccc1C(=O)NC1CC1	0.9	/
CCc1ccc(NC(=O)c2ccc(F)c(S(=O)(=O)N3CCN(Cc4ccc5c(c4)OCO5)CC3)c2)cc1	/	-0.91
Cc1cc(C)c2c(N)c(C(=O)Nc3ccc(S(N)(=O)=O)cc3)sc2n1	/	2
Cc1ccc(Cn2c(C(=O)NCc3ccccc3)cc3sccc32)cc1	1.5	74
Cc1ccc(/C=C2\SC(=O)NC2=S)o1	-0.35	/
C=CC(=O)Nc1ccc(Br)cc1	-0.25	0.095
Additional structures follow:
SMILES	AID504770	Ba CapD inh
COC(=O)c1ccc(C2Nc3cccc4cccc(c34)N2)cc1	-0.5	-0.035
COc1ccc(OCc2nn3c(C(F)(F)F)nnc3s2)cc1	0.3	-0.34
COC(=O)c1ccc(OC)nc1	-0.35	/
COCCn1c(SCC(=O)NCc2ccc3c(c2)OCO3)nnc1-c1c[nH]c2ccccc12	-0.55	/
O=c1/c(=C\c2cn(Cc3ccc(Cl)c(Cl)c3)c3ccccc23)sc2nc3ccccc3n12	/	0.46
COC(=O)C1C(c2ccccc2)C(C(=O)O)C1c1ccccc1 (configuration not stated)	-0.2	0.04

High-throughput results (PubChem)
